Bioassay records as filed in PubChem BioAssay.
Beta2AR agonist – activates human beta-2 adrenergic receptor causing internalization; P07550; Am2.2-beta2AR cells, FAP receptor internalization, flow cytometry; reference of the scale not given here; response, % (test concentration not listed); 340,000 tested, 0.43% active;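 active means response above a set limit, near 3 SD of response in nonfluorescent compounds, cut at about 42% in these data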;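 further: stock transfer was 100 nL into about 11 µL; a reference agonist was the positive control; negative values mostly stem from fluorescent compounds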
Target sequence (P07550 whole entry, looked up): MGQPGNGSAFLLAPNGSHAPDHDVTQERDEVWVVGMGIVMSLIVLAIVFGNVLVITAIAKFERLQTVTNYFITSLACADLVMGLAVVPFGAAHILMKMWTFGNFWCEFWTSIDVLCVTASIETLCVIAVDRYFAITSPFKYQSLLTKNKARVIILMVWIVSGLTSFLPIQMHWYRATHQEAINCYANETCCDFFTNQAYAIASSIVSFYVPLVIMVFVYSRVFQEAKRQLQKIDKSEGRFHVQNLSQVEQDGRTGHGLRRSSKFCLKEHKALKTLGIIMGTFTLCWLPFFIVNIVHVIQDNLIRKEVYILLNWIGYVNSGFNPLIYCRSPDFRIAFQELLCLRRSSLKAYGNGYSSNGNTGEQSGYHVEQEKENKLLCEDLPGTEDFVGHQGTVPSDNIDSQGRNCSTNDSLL
FGF22 binding – shifts melting point of recombinant human FGF22. Q9HCT0. recombinant FGF22 thermal shift, SYPRO orange fluorescence; percent of sucrose octasulfate shift, DMSO zero. calls only at 9.99 µM. 340,000 tested, 1.5% active. AID 651658;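 active means melting point raised past a set limit in the mean and every replicate; three in four hits are not shown here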
UCH37 DUB inh – inhibitors of human deubiquitinating enzyme UCH37 | AID 588478 | 330,000 tested, 0.33% active | inhibition, % (test concentration not listed) | purified proteasome/UCH37, Ub-AMC cleavage fluorescence | Q9Y5K5;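 active means mean of two replicates above 20%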;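 further: 0% = compound-free wells with enzyme and 100% = wells lacking proteasome; stock transfer was 100 nL into about 20 µL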
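Schedule: 30 min plus 25 min, room temperature / Material: human UCH37 within purified proteasomes / Technique: AMC fluorescence intensity at 355/460 nm / Buffer or medium: pH 7.4 Tris-HCl (50 mM) with ovalbumin, ATP-MgCl2, DTT / Controls: wells without proteasome as full block, compound-free enzyme plus substrate as uninhibited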
E coli growth – blocks Escherichia coli growth. OD600, 23 h; hits give low values. OD600 absorbance (concentration not given with the values). 330,000 tested, 0.21% active. AID 1053175;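 active means OD600 absorbance below the run mean of sample wells minus 3.6 SD, in any replicate, cut at about 0.56 in these data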;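 further: stock transfer was 300 nL into about 60 µL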
LANA-H2B inh – blocks KSHV LANA binding to histone H2A/H2B; Q9QR71; cell-free LANA-H2A/H2B peptide, fluorescence polarization; inhibition, % (test concentration not listed); 320,000 tested, 0.6% active; in the data active means inhibition mostly above about 10%, no sharp cut-off; inactive means mostly below about 6.7%;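 further: stock transfer was 7.5 nL into about 10 µL; 0% = median of vehicle wells and 100% = median of positive control wells; one replicate is shown; the record names a cut of 25% in any replicate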
HNF4A DNA FP – change in binding of human HNF4 alpha to DNA. P41235. AID 1224865. HNF4a-FITC DNA binding, fluorescence polarization, 1 h. activity change, % at 10 µM. 360,000 tested, 0.3% active; in the data active means activity change above about 30%, passing the limit was not always enough;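 further: controls were the assay level and a saturating level of protein; the project sought stronger binding though the title names inhibitors; some compounds called inactive have numbers as strong as hits; positive values seem to mean higher polarization but the record does not say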
Target sequence (P41235 whole entry, looked up): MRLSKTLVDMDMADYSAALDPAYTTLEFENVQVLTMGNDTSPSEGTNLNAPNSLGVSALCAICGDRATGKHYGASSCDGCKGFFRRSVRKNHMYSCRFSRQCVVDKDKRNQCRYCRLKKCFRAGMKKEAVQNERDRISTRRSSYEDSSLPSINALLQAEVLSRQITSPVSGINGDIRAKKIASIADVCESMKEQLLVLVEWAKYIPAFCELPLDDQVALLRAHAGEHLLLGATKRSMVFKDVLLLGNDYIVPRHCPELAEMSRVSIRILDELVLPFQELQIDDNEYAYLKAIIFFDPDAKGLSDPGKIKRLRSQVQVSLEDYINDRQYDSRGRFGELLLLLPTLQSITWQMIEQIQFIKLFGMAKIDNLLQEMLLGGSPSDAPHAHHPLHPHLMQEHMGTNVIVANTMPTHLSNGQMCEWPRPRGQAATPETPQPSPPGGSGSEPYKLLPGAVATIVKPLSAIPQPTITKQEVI
ALR H2O2 inh – blocks human ALR sulfhydryl oxidase activity; purified ALR, DTT oxidation, H2O2 HRP-luminol luminescence; inhibition, % (concentration not given with the values); 290,000 tested, 3.8% active; AID 485317;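 active means mean and each replicate at 75% or more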;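 further: stock transfer was 7.5 nL into about 7.5 µL; 0% = neutral wells and 100% = wells with inactivated enzyme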
Target sequence (P55789 whole entry, looked up): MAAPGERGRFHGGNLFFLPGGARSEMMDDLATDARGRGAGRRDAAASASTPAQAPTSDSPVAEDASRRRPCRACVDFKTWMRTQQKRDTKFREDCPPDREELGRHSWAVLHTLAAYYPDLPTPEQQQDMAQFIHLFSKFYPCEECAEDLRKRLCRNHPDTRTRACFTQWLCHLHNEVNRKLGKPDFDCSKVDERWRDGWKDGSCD
* hit, by the source's call; i = inactive; · = no result given; & = joins results of further samples.

SMILES	Beta2AR agonist	FGF22 binding	UCH37 DUB inh	E coli growth	LANA-H2B inh	HNF4A DNA FP	ALR H2O2 inh
COCC(C)n1c(C)cc(C(=O)CSc2nc3ccccc3c(=O)[nH]2)c1C (centres undefined)	-2	·	-1.6	0.69	-3.8	0.8	-7
CCCCNC(=O)NNC(=O)c1ccc(F)cc1	2	·	0.8	0.63	-1.1	1.6	10
COc1ccc(C(=O)N2CC3(C)C4CCC3(C)C2(C#N)C4)cc1OC (centres undefined)	-13	i	0.7	0.7	·	3.6	-1
CC(NCc1ccc(S(N)(=O)=O)cc1)C(=O)Nc1ccc([N+](=O)[O-])cc1Cl (centres undefined)	-4	i	1.8	0.67	2.2	-2.4	-12
CCn1c(NCc2cc(Br)ccc2NS(=O)(=O)c2ccc(C)cc2)nc2ccccc21	3	·	0.8	0.73	-0.1	0.5	-2
COc1ccc(-c2n[nH]c(=S)n2/N=C/C=C\c2ccccc2OC)cc1	-11	·	·	·	-5.5	1.0	·
O=C(Nc1cccnc1Cl)c1ccc(=O)oc1	11	i	-8.7	0.72	3.1	-5.2	9
Cn1cc(C(=O)NCc2ccc(F)cc2)cn1	2	i	3.3	0.71	-0.8	-0.7	0
C/C(=N\NC(=O)C1(C)CC1(Br)Br)c1cccc(NC(=O)C(C)(C)C)c1 (centres undefined)	1	·	·	·	-7.9	1.5	-2
COC(=O)C1=C(C)N(C)C(C)=C(C(=O)OC)C1c1ccc(F)c(Br)c1	3	·	3.6	0.78	-6.8	0.1	·
Cc1ccc(C(=O)NNC(=O)C(NC(=O)c2cccc(C)c2)C(C)C)cc1 (centres undefined)	-7	i	1.4	0.71	-0.8	3.6	-1
C[C@H](CO)N1C[C@H](C)[C@@H](CN(C)C(=O)Nc2ccc(C(F)(F)F)cc2)Oc2ccc(NS(=O)(=O)c3cn(C)cn3)cc2C1=O	-4	i	1.4	·	5.2	0.1	7
CCc1cc(C(=O)Nc2cc(S(=O)(=O)N3CCOCC3)ccc2N2CCN(CC)CC2)sc1C	5	i	2.8	0.68	·	1.4	·
COc1ccc(C2=NN(CCC(=O)NC3CCCCCC3)C(=O)CC2)cc1	-6	i	1.9	0.64	-1.4	-2.7	1
COc1ccc(C(=O)CC(=O)C(=O)Nc2ccc(C)cc2Cl)cc1	-7	i	3.2	0.64	-1.0	0.2	55
Cc1cccc(C(=O)Nc2ccccc2C(=O)NCc2ccco2)c1	-4	i	3.8	0.64	0.5	1.5	-5
CCOC(=O)c1ccc(NC(=O)CSC(=S)N2CCOCC2)cc1	4	i	0.5	0.68	-5.4	3.3	100*
COc1ccc(C(=O)NCCS(=O)(=O)NCc2ccc(C)cc2)cc1	8	·	-0.7	0.69	-4.5	-1.3	1
COC(=O)c1[nH]c(C)c(/C(O)=C2\C(=O)C(=O)N(CCN3CCOCC3)C2c2ccc(C)o2)c1C (centres undefined)	8	i	12	0.65	-3.3	3.4	·
CCn1cc(CNC(=O)C2CCC(=O)N(Cc3ccccc3F)C2)cn1 (centres undefined)	-4	i	5.1	0.69	-0.8	-4.1	-2
Cn1c(-c2ccccc2)cnc1N	8	·	1.7	0.69	-2.2	-1.2	13
Cc1ccccc1Nc1nc2ccccc2n1C(C)C	-2	i	0.4	0.72	-0.7	0.9	4
CC(C)Cc1nnc(NC(=O)CC(=O)Nc2ccccc2C(=O)O)s1	3	·	1.1	0.7	3.7	-1.4	-1
COC(=O)c1nnn(-c2nonc2N)c1CSCCO	5	·	2.2	0.8	-4.9	-0.8	·
Cn1cccc1CC(=O)N/N=C/c1ccc(Cl)c([N+](=O)[O-])c1	3	i	·	·	2.1	-2.0	9

3 entries from above, with values ahead of the structure.
Beta2AR agonist	FGF22 binding	UCH37 DUB inh	E coli growth	LANA-H2B inh	HNF4A DNA FP	ALR H2O2 inh	smiles
-7	i	3.2	0.64	-1.0	0.2	55	COc1ccc(C(=O)CC(=O)C(=O)Nc2ccc(C)cc2Cl)cc1
-4	i	3.8	0.64	0.5	1.5	-5	Cc1cccc(C(=O)Nc2ccccc2C(=O)NCc2ccco2)c1
4	i	0.5	0.68	-5.4	3.3	100*	CCOC(=O)c1ccc(NC(=O)CSC(=S)N2CCOCC2)cc1

Remaining list, next part.
SMILES	Beta2AR agonist	FGF22 binding	UCH37 DUB inh	E coli growth	LANA-H2B inh	HNF4A DNA FP	ALR H2O2 inh
CC(C)(C)NC(=O)C(c1ccc(F)cc1)N(Cc1ccccc1Cl)C(=O)c1ccn[nH]1 (centres undefined)	-4	i	2.1	0.65	4.3	0.0	-4
CC(N=C1NS(=O)(=O)c2ccccc21)C(=O)NCCCc1ccccc1 (centres undefined)	-5	i	-0.3	0.71	1.3	2.5	-2
CC[C@@]1(C(=O)OC)N[C@H](CN(C)S(=O)(=O)c2ccc(F)cc2)[C@@H]2C(=O)N(C)C(=O)[C@@H]21	-4	i	4.6	0.71	·	0.0	·
CN(C)CCCn1c2c(c(SCC(=O)Nc3ccc4c(c3)OCCO4)nc1=O)CCC2	0	i	·	·	1.2	1.4	99*
Cc1ccc(S(=O)(=O)Nc2cccc(C(=O)NCC(C)(C)N3CCOCC3)c2)cc1F	-4	i	-1.7	0.7	-4.5	1.3	-1
COc1ccccc1C(=O)Nc1ccc(OCC(=O)N2CC(C)OC(C)C2)cc1 (centres undefined)	4	i	1.4	0.68	5.4	2.1	-4
COc1ccc(CCNC(=O)COC(=O)/C=C/c2ccc3c(c2)OCO3)cc1	-1	i	-27	0.7	0.4	2.1	-2
COc1ccc(OC)c(NC(=O)C23CCC(C)(C(=O)C2)C3(C)C)c1 (centres undefined)	-9	·	2.0	0.76	3.1	-2.0	-25
Cc1c(Br)c([N+](=O)[O-])nn1C(C)C(=O)Nc1c(C)n(C)n(-c2ccccc2)c1=O (centres undefined)	-10	·	1.2	0.7	1.1	-0.3	-4
O=C(O)CC1(CC(=O)Nc2cccc(C(=O)O)c2)CCCC1	0	i	2.5	0.67	-1.0	2.4	-9
Cc1ccc(NC(=O)Nc2cccc(Cl)c2)c(C(=O)O)c1	11	·	-13	0.69	11	2.3	51
CN(C)CC1CCCCC1C1(O)c2ccccc2CSc2sccc21 (centres undefined)	10	·	-0.7	0.69	-5.8	-2.3	1
COc1ccc(NC(=O)Nc2cc(C(C)(C)C)on2)cc1OC	3	i	0.5	0.69	-1.2	4.2	-36
CCN(CC)CCCNC(=O)c1cn(CCOC)c(=O)c2c1c1ccccc1n2C	2	·	-96	0.69	0.1	-2.5	-7
CCOC(=O)c1ccc(NC(=O)c2nc[nH]c2C(=O)NCCCNC(=O)c2[nH]cnc2C(=O)Nc2ccc(C(=O)OCC)cc2)cc1	-2	i	-8.3	0.73	-4.2	-0.8	-4
CC(=O)Oc1cc(C(=O)OCC(=O)N2CCc3ccccc3C2)cc(OC(C)=O)c1OC(C)=O	0	i	3.5	0.67	0.2	-12	65
CCC1(c2ccccc2)NC(=S)N(c2ccc(C)cc2)N1 (centres undefined)	-4	i	-0.6	0.69	-2.3	-3.4	94*
Cc1ccc(/C=C2\SC(=S)N(c3cccnc3)C2=O)o1	7	i	4.9	0.69	1.2	8.3	-1
CCOC(=O)C(NC(=O)CC)(N1CCc2ccccc2C1)C(F)(F)F (centres undefined)	-4	·	-3.2	0.73	0.6	-1.3	3
Clc1ccc2c(c1)nc1n2CCCC1	-1	i	5.0	0.65	-1.7	3.9	2
COc1ccc(S(=O)(=O)N2CCOCC2)cc1NC(=O)Cc1ccsc1	0	i	1.4	0.71	0.1	4.5	-6
CCc1ccc(S(=O)(=O)NC2CC(C)(C)NC(C)(C)C2)cc1	3	i	·	·	3.7	-4.2	0
CCc1cccc2sc(N(CCCN3CCOCC3)C(=O)CS(=O)(=O)c3ccccc3)nc12	4	i	1.6	0.66	-0.7	1.4	·
CCCC(=O)N(C1CC(C)C(C#N)(C#N)C1(C#N)C#N)N(C)C (centres undefined)	43*	i	0.1	0.7	-2.2	0.1	11
COc1ccccc1CNC(=O)CSc1ccc(-c2cccc([N+](=O)[O-])c2)nn1	-3	·	4.3	0.7	1.3	-4.2	84*

The results go on:
SMILES	Beta2AR agonist	FGF22 binding	UCH37 DUB inh	E coli growth	LANA-H2B inh	HNF4A DNA FP	ALR H2O2 inh
CCC(C)C(NC(=O)C1CCC(C)CC1)C(=O)Nc1ccc(OC)cc1OC (centres undefined)	0	i	3.8	0.68	0.4	2.0	·
Cc1cc(C)n2nc(SCC(=O)c3c(N)n(CC(C)C)c(=O)n(C)c3=O)nc2n1	-9	i	-0.3	0.71	-0.9	1.7	-5
CCOC(=O)C1=C(COC(=O)c2cccc(N(C)C)c2)NC(=O)NC1C (centres undefined)	-4	i	4.7	0.67	-2.2	-3.6	-2
O=C(CCCn1c(=O)c2ccccc2n(Cc2ccccc2)c1=O)NCc1ccco1	-17	·	0.9	0.76	0.3	-1.3	-2
CC(=O)Nc1ccc(S(=O)(=O)N(CC(=O)NC2CC2)Cc2ccccc2)cc1	-6	i	1.8	0.71	-2.8	2.2	1
O=C(COc1ccccc1)OCc1csc(Nc2ccccc2)n1	3	i	2.0	0.72	1.2	4.9	23
COc1ccc(C2OC(=O)CC2C(=O)NCc2ccccc2Cl)cc1OC (centres undefined)	5	i	0.1	0.66	0.0	6.9	0
O=C(c1ccc(F)cc1)N1CCC(C(=O)N2CCN(S(=O)(=O)c3cccc([N+](=O)[O-])c3)CC2)CC1	0	i	0.9	0.7	3.5	-2.9	-20
Cc1ccc(-n2ncc3c(SCC(=O)NNC(=O)c4ccco4)ncnc32)cc1	0	·	-11	0.71	-2.2	-1.9	38
C=CCn1c(C)cc(C(=O)COc2ccc(N(C)S(=O)(=O)c3ccc(NC(C)=O)cc3)cc2)c1C	44*	i	6.5	0.71	-4.4	-1.0	·
CCCCN(CC)CCCNC(=O)c1cc2c(-c3ccc(OC)c(OC)c3)nn(C)c2s1	-9	i	-5.1	0.67	0.6	7.2	-7
Cc1cccc(C(=O)Nc2ccc(S(=O)(=O)Nc3nc(C)cc(C)n3)cc2)c1	0	i	4.2	0.68	-0.3	-0.6	0
CCOc1ccc(N2C(=O)CC(N3CCN(c4ccc(C(=O)c5ccncc5)cc4)CC3)C2=O)cc1 (centres undefined)	4	·	-7.7	0.79	-3.1	2.0	·
CCCCNc1nc(CC(C)=O)ns1	-8	·	0.0	0.7	-1.7	0.9	1
O=C(CN1CCC(NC(=O)Nc2ccc(F)cc2)CC1)Nc1ccccc1[N+](=O)[O-]	-2	i	6.4	0.62	1.4	-1.7	·
CN(CCCNC(=O)C1CCCN(S(=O)(=O)c2cnc[nH]2)C1)c1ccccc1 (centres undefined)	-8	i	3.4	0.69	-0.4	2.0	100*
CC(=O)c1ccc(N2CCN(C(=O)c3cc4c(C)nc5ccccc5c4o3)CC2)cc1	2	i	-0.9	0.7	0.4	5.8	-6
CC(=O)c1cccc(NC(=O)c2ccc(OCc3c(C)noc3C)cc2)c1	-2	i	4.2	0.68	-4.0	-3.0	1
O=C(COC(=O)c1ccc(Br)o1)NCC1CCCO1 (centres undefined)	9	·	6.1	0.68	-2.3	2.6	-1
COc1ccccc1OCc1cc(C(=O)N2CCN(C)C(c3ccccc3)C2)no1 (centres undefined)	-1	i	-1.0	0.69	1.4	3.1	-3
Cc1ccc2c(CN3CCN(Cc4ccc5c(c4)OCO5)CC3)cc(=O)oc2c1C	6	i	2.1	0.69	4.8&2.4	0.3	-2
S=C1NCC(c2ccccc2)S1 (centres undefined)	-8	i	4.7	0.67	·	2.3	·
CCC(=O)N1CC(C)C(=O)Nc2ccccc21 (centres undefined)	7	·	2.0	0.75	0.5	-5.9	·
CCOC(=O)c1cccc(NC(=O)c2ccc3c(c2)C(=O)N(CC2CCCO2)C3=O)c1 (centres undefined)	5	i	-2.4	0.69	6.0	4.8	-1
CCCNC(=O)C1CCC(CNS(=O)(=O)c2ccc3c(c2)CC(C)N3C(C)=O)CC1 (centres undefined)	-6	i	0.2	0.66	-0.3	6.2	-4

Single entries from the results shown.
O=C(c1ccc(F)cc1)N1CCC(C(=O)N2CCN(S(=O)(=O)c3cccc([N+](=O)[O-])c3)CC2)CC1 in LANA-H2B inh is entered as 3.5
S=C1NCC(c2ccccc2)S1 (centres undefined) in HNF4A DNA FP is entered as 2.3

The list is partial, so the mix of outcomes need not match the whole.
